Mtb H37Rv: Mycobacterium tuberculosis H37Rv growth inhibition, cell based, confirmatory dose response (AID 1949); most inactive calls were filed without a number and no value below 0 was filed; 1.6% of 100,000 active; inhibition, % at 10 µg/mL; hits with a dose series show IC50 in µg/mL;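 active = confirmed in a dose series; inconclusive = about 50% or more but not retested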;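 note: bacteria grown 7 days with compound before Alamar blue readout; 0% = untreated bacteria and 100% = reference antibiotic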
* hit, by the source's call; i = inactive; ? = inconclusive. These rows are one share of the data; the hit share may differ from the screen's.

#	smiles	Mtb H37Rv
1	O=C1c2ccccc2C(=O)N1CCCCN(C(=O)c1ccco1)c1ccc(Cl)cc1	i
2	CCn1c(CC(=O)Nc2ccc(Cl)c(Cl)c2)nnc1SCC(=O)Nc1cccc(SC)c1	1%
3	CCc1ccc(C(=O)NC(=S)Nc2ccc(NC(=O)C(C)C)cc2)cc1	i
4	COc1ccc(S(=O)(=O)N(CC(=O)Nc2ccccc2SC)c2ccc(Cl)cc2)cc1	i
5	CCOC(=O)c1ccc(NC(=S)Nc2ccc(C)cc2Br)cc1	16%
6	Cc1ccc(S(=O)(=O)N2CCC(C(=O)Nc3cccc(Br)c3)CC2)cc1	i
7	Cc1cc(F)ccc1S(=O)(=O)NCCCCCCNS(=O)(=O)c1ccc(F)cc1C	i
8	CCn1c(CCc2ccccc2)nc2ccccc21	i
9	CCOc1ccc(NC(=O)C(CC(=O)O)Cc2ccccc2)cc1 (stereo not drawn)	i
10	CCSc1ncc(Cl)c(C(=O)Nc2nnc(SCc3ccccc3F)s2)n1	14%
11	O=C(NCCNC(=O)c1ccc(F)cc1)c1ccc(F)cc1	i
12	O=C(Nc1cc(Cl)c(Cl)cc1Cl)C1CCN(S(=O)(=O)c2ccccc2)CC1	i
13	COc1ccccc1NC(=S)Nc1ccc(C(C)=O)cc1	i
14	Cn1c(CN2CCOCC2)nc2cc(NC(=O)c3cccs3)ccc21	i
15	Cc1occc1-c1nnc2sc(-c3ccc(-c4ccccc4Cl)o3)nn12	i
16	Cc1ccccc1N1C(=O)N(c2ccc(Br)cc2)C2CS(=O)(=O)CC21 (stereo not drawn)	i
17	COc1cc(NC(=O)c2cc(Br)ccc2Cl)c(OC)cc1Cl	i
18	COc1ccc(S(=O)(=O)Nc2ccc3c(c2)OCCO3)c(Cl)c1Cl	2%
19	CCCCOc1ccccc1NS(=O)(=O)c1ccc(Cl)cc1	i
20	Cc1ccc(Nc2nc(CSc3nc4ccccc4s3)cc(=O)[nH]2)cc1	?
21	COc1ccc(N(CC(=O)Nc2cccc(F)c2)S(=O)(=O)c2ccccc2[N+](=O)[O-])c(OC)c1	i
22	COc1ccc(-c2c3c(=O)n(C)c(=O)n(C)c3c3nnc4ccccc4n23)cc1	3%
23	CC(C)CCNS(=O)(=O)c1cc(Cl)ccc1Cl	i
24	Nc1ccc(-c2n[nH]c(=O)c3ccccc23)cc1N	i

Another view of some results above.
[22] COc1ccc(-c2c3c(=O)n(C)c(=O)n(C)c3c3nnc4ccccc4n23)cc1
  Mtb H37Rv: 3%
[23] CC(C)CCNS(=O)(=O)c1cc(Cl)ccc1Cl
  Mtb H37Rv: i
[24] Nc1ccc(-c2n[nH]c(=O)c3ccccc23)cc1N
  Mtb H37Rv: i

Later entries:
#	smiles	Mtb H37Rv
25	COC(=O)CN(c1ccc(OC)cc1OC)S(C)(=O)=O	i
26	Cc1ccc(N(Cc2ccc(C(=O)Nc3ccccc3C(C)C)cc2)S(C)(=O)=O)cc1C	i
27	Cc1cc(N2C(=O)CC(Cc3ccc(Cl)cc3)C2=O)no1 (stereo not drawn)	i
28	CCCCOC(=O)Nc1nnc(COc2cccc(C(F)(F)F)c2)s1	i
29	O=C(CSc1nccc(=O)[nH]1)Nc1ccc(I)cc1	i
30	CCOC(=O)c1c(NC(=O)c2cc(OC)cc(OC)c2)sc2c1CCC2	i
31	CC(C)c1cc(C(=O)NNC(=S)NCCc2ccccc2)c(O)c(C(C)C)c1	i
32	COc1c(C)cc(Br)cc1C(=O)Nc1ccc(F)c(Cl)c1	i
33	CCOC(=O)N1CCN(CCC(=O)Nc2ccc(OC)cc2)CC1	i
34	Cc1cccn2cc(-c3cccc(NS(=O)(=O)c4ccc(F)cc4)c3)nc12	i
35	CCOc1ccccc1NC(=O)Nc1cccc([N+](=O)[O-])c1C	i
36	Cc1cc(S(=O)(=O)N2CCCC2C(=O)O)c(C)cc1Cl (stereo not drawn)	i
37	CCOc1ccccc1NS(=O)(=O)c1ccc(Br)c(OC)c1	i
38	Cc1cccc(N2C(=O)CC(Sc3nnc(N)s3)C2=O)c1 (stereo not drawn)	2%
39	O=C(NC12CC3CC(CC(C3)C1)C2)N1CCc2ccccc2C1	2%
40	CCN(CCO)C(=O)CC(c1ccccc1)c1cc(Cl)ccc1O (stereo not drawn)	i
41	COC(=O)c1ccccc1NC(=O)CSc1nccc(C)n1	i
42	Cc1cc(C)c(OCC(=O)Nc2ccccc2C#N)c(Br)c1	i
43	CCC(C(=O)Nc1nnc(Cc2ccc(Cl)cc2)s1)c1ccccc1 (stereo not drawn)	i
44	O=C(Cc1ccccc1[N+](=O)[O-])Nc1nnc(Cc2ccc(Cl)cc2)s1	i
45	COc1ccc(NC(=O)CN(Cc2ccc(F)cc2)S(=O)(=O)c2ccccc2)cc1Cl	i
46	Cc1ccc(-c2nc(-c3ccc(Br)cc3)no2)c(Cl)c1	i
47	N#Cc1c(NC(=O)C(F)(F)F)sc2c1CCC2	i
48	Cc1cc(Cl)ccc1NC(=O)c1ccc(O)cc1	i
49	OCCNCCOCCOc1cccc(Br)c1	i
50	Cn1c(Cc2cccs2)nnc1SCc1ccc([N+](=O)[O-])cc1	i
51	CCOC(=O)C1CCCN(C(=O)c2ccc(OC(C)=O)cc2)C1 (stereo not drawn)	i
52	Cc1ccc(NC(=S)c2ccc3ccccc3n2)c(C)c1	?
53	COc1ccc(C(=O)N2CCN(C(=O)Cc3ccccc3)CC2)cc1	i
54	CCOC(=O)N1CCN(C(=O)c2ccc(NC(=O)CC)cc2)CC1	i
55	O=C(Nc1ccccc1C(=O)NCC1CCCO1)c1ccco1 (stereo not drawn)	i
56	O=C(Nc1ccc2c(c1)OCCO2)c1ccccc1Oc1ccccc1	22%
57	Cc1cc(C)c(S(=O)(=O)NCCc2ccncc2)c(C)c1	i
58	O=C(Nc1nc(-c2ccccc2Cl)cs1)c1cccnc1	5%
59	CC(C(=O)N1CCOCC1)N1C(=O)C2C3C=CC(C4CC34)C2C1=O (stereo not drawn)	i
60	CCN(CC)S(=O)(=O)c1cc(C(=O)Nc2nncs2)c(Cl)cc1Cl	i
61	O=C(NNC(=S)Nc1ccc(Br)cc1Cl)c1ccncc1	?
62	CCCCOc1c(Cl)cc(C2NC(=O)NC(C)=C2C(=O)OCC)cc1OCC (stereo not drawn)	11%
63	Cc1ccccc1C(=O)Nc1ccccc1C(=O)Nc1ccc(F)cc1	i
64	CCCc1nc2ccccc2n1Cc1ccc(OC)c(OC)c1	i
65	COc1ccc(C(=O)N2CCN(C(=O)N3CCOCC3)CC2)cc1OC	i
66	CC(C)CNC(=O)c1ccccc1NS(=O)(=O)c1ccccc1[N+](=O)[O-]	i
67	O=C(Nc1ccccc1-c1nc2ccccc2s1)c1cccc(I)c1	1%
68	O=C(Nc1ccc2[nH]c(=O)[nH]c2c1)C(F)(F)F	i
69	CN(CCc1ccccn1)C(=O)c1nn2c(C(F)(F)F)c3c(nc2c1Cl)-c1ccccc1CC3	i
70	COC(=O)C1=C(C)N(c2cccc(C(C)=O)c2)C(=O)C1	i
71	Nn1c(SCc2ccccc2F)nnc1-c1ccccc1	i
72	COc1cccc(-c2cc(C(F)(F)F)n3nc(C(=O)Nc4cccnc4)cc3n2)c1	0%
73	CCOC(=O)CN1C(=O)C(O)(c2c[nH]c3ccccc23)c2ccccc21 (stereo not drawn)	i
74	Cn1cnnc1SCc1nc2ccc([N+](=O)[O-])cc2[nH]1	i
75	Cc1cc2ncn(CC3CC3(Cl)Cl)c2cc1C (stereo not drawn)	53%
76	N#C/C(=C/c1ccc(N2CCOCC2)c([N+](=O)[O-])c1)C(N)=O	i
77	COc1ccccc1C(=O)Nc1cccc(C(=O)O)c1C	i
78	CC(C)N(Cc1ccccc1)S(=O)(=O)c1ccc(F)cc1	i
79	CCOC(=O)Nc1cc(=O)c2ccccc2o1	i
80	COC(=O)COc1ccc(S(=O)(=O)Nc2ccccc2SC)cc1	i

Going on with the list.
#	smiles	Mtb H37Rv
81	Cc1ccc2nsnc2c1S(=O)(=O)NCc1ccncc1	i
82	CC(=O)Oc1ccc(C(=O)Nc2nnc(COc3ccc(Cl)cc3)s2)cc1	3%
83	CCCCN(C(=S)Nc1ccccc1)C1CCS(=O)(=O)C1 (stereo not drawn)	i
84	CCC1CCCCN1C(=O)c1cc(F)c(F)cc1Cl (stereo not drawn)	i
85	CCOc1ccc2nc(NS(C)(=O)=O)sc2c1	i
86	CC(=O)c1cc(C(C)(C)C)c(O)c(C(C)(C)C)c1	i
87	CCN(CC)c1ccc(NC(=O)c2cccc(OCc3ccccc3)c2)c(C)c1	16%
88	O=C(CS(=O)(=O)c1ccccc1)c1ccc(Br)cc1	i
89	CCc1ccc(N2CCN(CC(O)COc3ccc4ccccc4c3)CC2)cc1 (stereo not drawn)	6%
90	COc1ccccc1C1C=C(c2ccc(Br)cc2)Nc2nc(N3C(=O)CCC3=O)nn21 (stereo not drawn)	i
91	C/C=C/Cn1cnc2c1c(=O)n(C)c(=O)n2C	i
92	Cc1ccc(-c2nn3c(C)nnc3s2)cc1NC(=O)c1ccc(-c2ccc(Cl)cc2Cl)o1	i
93	N#Cc1ccccc1NC(=O)Cc1ccc(F)cc1	i
94	Cc1ccc2ncnc(Nc3cccc([N+](=O)[O-])c3)c2c1	3%
95	O=C(NCCC1=CCCCC1)c1cc(Br)ccc1Cl	10%
96	CC(=O)Nc1ccc(OC(=O)N(C)c2ccccc2)cc1	13%
97	O=C(Cn1cnc2ccccc2c1=O)Nc1ccc2c3c(cccc13)CC2	i
98	CCCNS(=O)(=O)c1ccc(S(N)(=O)=O)cc1	i
99	COC(=O)c1c(NC(=O)c2sc3cccc(Cl)c3c2Cl)sc2c1CCC2	i
100	CC(C)c1ccc(N2C(=O)CC(Sc3nnnn3-c3ccccc3)C2=O)cc1 (stereo not drawn)	i
101	O=C(CN1CCOCC1)Nc1ccc(Br)cn1	6%
102	CCS(=O)(=O)c1nc(S(=O)(=O)c2ccc(C)cc2)c(NC2CCCCC2)s1	41%
103	COC(=O)c1ccc(C)c(NC(=O)c2cc(OC)cc(OC)c2)c1	i
104	CC(=O)Nc1ccc(S(=O)(=O)Nc2cccc(C(C)=O)c2)cc1	i
105	CC(C)CCNC(=O)CN(c1cccc(Cl)c1Cl)S(C)(=O)=O	i
106	COc1ccccc1-c1nnc(SCC#CCO)o1	i
107	O=c1[nH]c(/C=C/c2ccc([N+](=O)[O-])cc2)nc2cc3ccccc3cc12	i
108	N#C/C(=C\c1ccco1)c1nc2ccccc2c(=O)[nH]1	i
109	S=C(c1cn(CCOc2ccccc2Cl)c2ccccc12)N1CCCC1	4%
110	COc1ccc(CCNC(=O)CSc2nnc(COc3ccccc3C)n2C)cc1OC	1%
111	CCSc1nc(-c2ccccc2)c(C#N)c(=O)[nH]1	i
112	Cc1ccc(Oc2ccc(C(F)(F)F)cc2[N+](=O)[O-])cc1C	1%

Looked up by structure from above (3):
#	smiles	Mtb H37Rv
58	O=C(Nc1nc(-c2ccccc2Cl)cs1)c1cccnc1	5%
88	O=C(CS(=O)(=O)c1ccccc1)c1ccc(Br)cc1	i
8	CCn1c(CCc2ccccc2)nc2ccccc21	i

(listing goes on)
#	smiles	Mtb H37Rv
113	Cc1ccccc1OCC(=O)Nc1cccc(-c2nc3ccccc3o2)c1	i
114	CC(=O)Nc1cccc(C(=O)NCc2ccco2)c1	i
115	Cc1cc(I)cnc1NC(=S)NC(=O)c1ccco1	i
116	COC(=O)c1ccc(COc2ccc3c(oc(=O)c4cc(OC)ccc43)c2C)o1	i
117	COc1ccc(-c2csc(Nc3ccc(O)c(C(=O)O)c3)n2)cc1C	i
118	Cc1ccc(C(=O)NCCNC(=O)CN2CCCC2)cc1	i
119	COc1ccc(NS(=O)(=O)c2ccc(NC(=S)NCc3ccc(Cl)cc3)cc2)cc1	i
120	COC(=O)C1=C(C)NC2=C(C(=O)CCC2)C1c1ccc(-c2ccccc2)cc1 (stereo not drawn)	i
121	Cc1cc(C)cc(OCCCC(=O)O)c1	i
122	CC(=O)c1ccc(-n2c(-c3ccc4ccccc4n3)n[nH]c2=S)cc1	i
123	COc1ccc2nc(SCC(N)=O)[nH]c2c1	i
124	CC(C)(C)c1ccc(S(=O)(=O)NC(Cc2ccccc2)C(=O)O)cc1 (stereo not drawn)	i
125	CCc1nnc(NC(=O)CCCc2ccccc2)s1	i
126	COCCNCCCSc1ccc(Cl)cc1	i
127	COCCCNCCCOc1ccc(C(C)(C)C)cc1C	i
128	CCCCc1cc(=O)oc2cc(OCc3cc([N+](=O)[O-])ccc3OC)ccc12	i
129	O=C(Nc1ccc2c(c1)OCO2)Nc1ccc(Br)cn1	0%
130	CCN(CC)C(=O)N1CC(C)OC(C)C1 (stereo not drawn)	i
131	CCCC(=O)Nc1ccc(Cl)c(NC(=O)c2ccc(-c3ccccc3)cc2)c1	0%
132	O=C(C1CCN(S(=O)(=O)c2ccccc2)CC1)N1CCN(c2ccccc2)CC1	i
133	CCOc1cc(C(=O)NCCOC)cc(Br)c1OC	i
134	COc1ccc(S(=O)(=O)N2CCN(C(=O)c3cccs3)CC2)cc1OC	i
135	Cc1ccc(C)c(NC(=O)CN(c2ccccc2C)S(C)(=O)=O)c1	i
136	CC(=O)c1ccc(NC(=O)CSc2nnc(-c3ccncc3)s2)cc1	i
137	COc1ccc(OC(=O)COc2ccccc2C)cc1	i
138	O=C1c2ccccc2NC(c2ccccc2F)N1c1ccc(Cl)cc1 (stereo not drawn)	i
139	COc1ccccc1N1CCN(C(=O)CN(Cc2ccc(F)cc2)S(=O)(=O)c2ccccc2)CC1	i

Part of the list above, field by field.
[135] Cc1ccc(C)c(NC(=O)CN(c2ccccc2C)S(C)(=O)=O)c1
  Mtb H37Rv: i
[136] CC(=O)c1ccc(NC(=O)CSc2nnc(-c3ccncc3)s2)cc1
  Mtb H37Rv: i

High-throughput results (PubChem BioAssay)
